# Source: PubChem (National Center for Advancing Translational Sciences (NCATS))
# VACV mCherry inh: vaccinia inhibition (mCherry reporter); Vaccinia virus mCherry reporter infection, fluorescence; about a quarter of the inactives have no number; Potency, µM (doses to about 36.5 µM), for the others: top-dose activity change, negative = inhibition, most hits filed as inhibitors; 310,000 compounds, 0.63% hits; AID 720579; active = well fitted inhibition curve with a large enough effect; inconclusive = small, poorly fitted or top-dose-only effect; inactive = no such curve, though single readings can be large or run the other way; tested in A549 cells; note: nearly all actives have a fitted effect of over 35% in size; inactives centre near -10
# Vaccinia Venus: vaccinia inhibition (Venus reporter); Potency, µM (series often up to 36.5 µM), without a hit: top-dose activity change, negative = inhibition, most hits filed as inhibitors; AID 720580; Vaccinia virus Venus reporter expression, fluorescence; 330,000 compounds, 0.46% hits; active means well fitted inhibition curve with a large enough effect; inconclusive means small, poorly fitted or top-dose-only effect; inactive means no such curve, though single readings can be large or run the other way; tested in A549 cells; note: nearly all actives have a fitted effect of over 30% in size; inactives centre near -10
# The depositor's hits bear a star; i = inactive; ? = inconclusive; nt = not tested or not shown; & = joins results of further samples; [ ] = another dose, or the depositor's remark. % is set by controls: 0 for no effect and ±100 for the full control effect; potency is the fitted concentration of half-maximal effect. Compounds were not picked by outcome (roughly 0.82% active in at least one column).
Molecule,Vaccinia Venus,VACV mCherry inh
Cc1ccc(Cl)cc1NC(=O)CCCn1c(=O)c2cccn2c2cccnc21,4%,-8%
COc1ccc(N(Cc2cc3ccc(C)cc3[nH]c2=O)S(=O)(=O)c2ccccc2)cc1,-27%,6%
Cc1ccc(OCCN(C)C(=O)C2CCC(=O)N(CCCN3CCCC3=O)C2)cc1 (centres undefined),-10%,-14%
COC(=O)c1scc(S(=O)(=O)c2ccccc2)c1N,-4%,-14%
Cn1c(=NC(=O)CSCC(=O)N2CCCC2)sc2ccccc21,-21%,nt
CC1=CC2=NC(=O)CC(C)(C(=O)N(CC(=O)NC3CCCC3)Cc3ccc(Cl)cc3)N2C=C1 (centres undefined),3%,-10%
O=C(Nc1ccc(F)cc1)c1cccnc1N1CCOCC1,0%,-8%
Cc1nn(C)c(C)c1-c1c(C#N)c(N)nc2c1CCCCCC2,-12%,i
O=C1C=C(NCc2ccccc2)c2ccccc2C1=O,11µM*,?
Cc1c(C(=O)N2CC3CCC2C3)sc2ncnc(NCCc3c[nH]c4ccccc34)c12 (centres undefined),-25%,?
COC(=O)c1sccc1-c1ccc(/C=N/OC(=O)c2cccs2)o1,-10%,i
Cc1noc(C)c1COc1ccc(C(=O)OCC(=O)Nc2ccc(C(=O)N(C)C)cc2)cc1,-18%,-1%
COc1ccc(S(=O)(=O)N2CCCC2CNC(=O)C(=O)NCCc2ccccc2)cc1 (centres undefined),-28%,?
C=CCC[C@@H](CCCCC)OC(=O)/C=C/[C@@H](O)[C@H](O)C[C@H](O)CC=C,-19%,-10%
COc1cc2c(cc1O)CCNC2C (centres undefined),-16%,i

# Some of these compounds in order of length of the SMILES, lowest first:
Molecule,Vaccinia Venus,VACV mCherry inh
O=C(Nc1ccc(F)cc1)c1cccnc1N1CCOCC1,0%,-8%
COC(=O)c1sccc1-c1ccc(/C=N/OC(=O)c2cccs2)o1,-10%,i
Cc1c(C(=O)N2CC3CCC2C3)sc2ncnc(NCCc3c[nH]c4ccccc34)c12 (centres undefined),-25%,?
CC1=CC2=NC(=O)CC(C)(C(=O)N(CC(=O)NC3CCCC3)Cc3ccc(Cl)cc3)N2C=C1 (centres undefined),3%,-10%

# More structures
Molecule,Vaccinia Venus,VACV mCherry inh
COc1ccc(OCC(=O)NNC(=O)Cn2c(=O)cnc3ccccc32)cc1,-9%,-15%
CC(C)Sc1nc2c(c(=O)[nH]c(=O)n2C)n1CCc1ccccc1,-19%,nt
O=C(Nc1ccccc1)N(CCc1ccncc1)C1CCCCC1,-23%,i
CC#CCN1c2ccccc2[C@]23C[C@@H](C(=O)OC)N(C(C)=O)C2=NC(C(=O)OC)=C(C(=O)OC)[C@H]13,-13%,-13%
C=C(C)COc1ccc2c(C)c(CC(=O)N3C[C@H]4C[C@@H](C3)c3cccc(=O)n3C4)c(=O)oc2c1,0%,-1%
Cc1ccc(N(CC(=O)NCc2cccs2)S(=O)(=O)c2cccs2)cc1,-6%,-18%
C=CCN(CC=C)CC(=O)Nc1ccc(S(N)(=O)=O)cc1,-9%,nt
CN1CCN(c2cc(N3CCCC3)c([N+](=O)[O-])cc2F)CC1,-24%,-23%
COC(=O)c1cc(NC(=O)CCc2c(C)nc3c(c(C)nn3C(C)(C)C)c2C)cc(C(=O)OC)c1,-5%,-7%
COc1ccc(/C=N/NC(=O)c2nc(-c3ccccc3)cc(-c3ccccc3)n2)cc1OC,?,nt
CCOc1ccccc1-c1cc(-c2ccccc2)nc2c1c(=O)n(C)c(=O)n2C,-4%,-13%
CCCCCNc1nc2ccccc2nc1NS(=O)(=O)c1cccs1,-12%,nt
CCOC(=O)c1c(/N=C/C2C(=O)CC(C)(C)CC2=O)sc2c1CCCC2,0%,?
COc1ccc(NC2c3ccccc3C(=O)N2Cc2ccco2)cc1OC (centres undefined),-22%,?
CC1CCN(S(=O)(=O)c2ccc(C(=O)NCc3ccco3)cc2)CC1,-24%,i

# Later entries
Molecule,Vaccinia Venus,VACV mCherry inh
FC(F)(F)c1ccc(C2NCCc3sccc32)cc1 (centres undefined),-15%,?
COc1ccc(-c2ccc(SCC(=O)NC3CCCCC3)nn2)cc1OC,-11%,-10%
CCOc1ccc(-n2nnnc2SCC(=O)NNC(=O)c2ccco2)cc1,0%,-11%
O=C(COc1ccc(S(=O)(=O)NC2CCCC2)cc1)N1CCCCC1,-18%,0%
O=C(Nc1ccccc1C(F)(F)F)c1cc2nc(-c3ccccc3)cc(-c3ccccc3)n2n1,9%,-10%
CC1=C(C(=O)O)N2C(=O)C(NC(=O)C(N)c3ccccc3)C2SC1 (centres undefined),-5%,-12%
Cc1cc2nc(-c3ccc(C#N)cc3)c(Cc3cccc(F)c3)n2c(C)c1Br,8%,i
O=C(CCCOc1ccccc1)Nc1ccc(Br)cc1,-18%,-26%
Cc1cccc(CN2CCN(Cc3cccc(-n4cccn4)c3)CC2CCO)n1 (centres undefined),-9%,i
Cc1ccc(-c2nc3c(c(=O)c4ccccc4n3C)c(=O)n2-c2ccccc2)cc1,-6%,-13%
CC(=O)c1cccc(NC(=S)NC(=O)C(C)C)c1,-23%,-5%
Cc1ccc(S(=O)(=O)c2nnn(CC(=O)Nc3ccccc3C)c2N)cc1,10%,4%
CC(C)(C)c1cc(C(=O)N/N=C/c2ccc(F)cc2)n(-c2ccccc2)n1,-23%,-11%
Cc1ccc(S(=O)(=O)N2CCN(CC3CC4C=CC3C4)CC2)cc1 (centres undefined),-1%,i
COc1ccc(NC(=O)COC(=O)c2c3c(nc4ccccc24)CCCC3)cc1Cl,?,?

# Next structures
Molecule,Vaccinia Venus,VACV mCherry inh
COc1ccc(C2C(C#N)=C(N)N(N(C)C)C3=C2C(=O)CC(C)(C)C3)cc1OC (centres undefined),-8%,i
CC(C)C(C(=O)NC(C)(C)C)N(CCN1CCOCC1)C(=O)CNS(=O)(=O)c1ccccc1 (centres undefined),-7%,-3%
Cc1cc(=O)[nH]c(CN2CCC(c3ccccc3)CC2)n1,-5%,-10%
O=C(NCC1CCCO1)c1ccc(COc2ccccc2)cc1 (centres undefined),-12%,i
COc1ccc(/C=C/C(=O)C2C(=O)C=C(C)OC2=O)cc1O (centres undefined),13%,-14%
COc1ccccc1C(C)NC(=O)c1ccccc1SCC(=O)N1CCCC1 (centres undefined),-6%,-8%
Cc1ccc(Cl)cc1N1CCN(C(=O)c2cnc3c(-c4ccc(F)cc4)c(C)nn3c2C)CC1,-24%,-25%
CCn1ncc(Br)c1C(=O)Nc1cccc(F)c1,-18%,-12%
COC1=C(Nc2ccc(OC)cc2)C(=O)c2ccccc2C1=O,?,?
CC(=O)N/C(=N/c1nc(C)cc(C)n1)Nc1ccc(C)cc1Cl,-13%,-10%
CCOc1ccccc1NC(=O)N1CCc2cc(S(=O)(=O)N3CCC(C)CC3)ccc21,-10%,-8%
Cc1ccc(C(=O)OC(C)C(=O)NC2CCCCC2C)cc1S(=O)(=O)N1CCOCC1 (centres undefined),-5%,-2%
CCOC(=O)C(O)(NC(=O)c1cccnc1)C(F)(F)F (centres undefined),-16%,nt
O=[N+]([O-])c1cc(Br)c(O)c(C=Nc2ccc(N3CCOCC3)cc2)c1,13%,?
CCNC(=O)C1CCCN(C(=O)c2ccc3c(c2)CCO3)CC1 (centres undefined),1%,9%

# Other results
Molecule,Vaccinia Venus,VACV mCherry inh
Cc1nnc(SCC(=O)Nc2sc3c(c2C(=O)c2ccccc2)CCCC3)s1,-3%,-7%
Cc1ccc(Nc2c(-c3ccc(N4CCOCC4)cc3)nc3ncccn23)c(C)c1,-6%&-20%,?
CCC(C(=O)Nc1ncc(C)s1)c1ccccc1 (centres undefined),-12%,i
O=C(c1ccco1)N1CCN(S(=O)(=O)c2ccc([N+](=O)[O-])cc2)CC1,-13%,-12%
CN1CCCCCC1=Nc1ccccc1C#N,-19%,nt
CCN(CC)CCN=Cc1c(O)n(CCc2ccccc2)c(=O)[nH]c1=O,-8%,-16%
O=C(NC1(C(F)(F)F)Oc2ccccc2O1)N1CCCC1,-13%,i
O=[N+]([O-])c1ccc(N2CCCC2)cc1NC(c1ccccc1)c1ccccc1,-5%,nt
CC(=O)Nc1ccc(S(=O)(=O)Nc2cc(-c3cn4ccccc4n3)ccc2C)cc1,-4%,7%
COc1ccccc1OCC(=O)Nc1nnc(-c2ccco2)s1,-4%,-8%
Cc1cccc(C(=O)NCc2nnc(SCC(=O)NC(C)c3ccccc3)n2C)c1 (centres undefined),-17%,-10%
O=C(CN(Cc1ccc(F)cc1)C(=O)c1csnn1)NCc1ccccc1,0%,-2%
COc1ccc(NC(=O)CC2C(=O)N(C)C(=S)N2CCc2ccc(F)cc2)cc1 (centres undefined),?,-28%
O=C(Nc1scc(-c2cccs2)c1C(=O)O)c1cccs1,-1%,-8%
COCC1CCCN(Cc2ccc3c(c2)CN(C(=O)c2cccnc2OC)CCO3)C1 (centres undefined),?,-10%

# Next part:
Molecule,Vaccinia Venus,VACV mCherry inh
CCOC(=O)Nc1ccc(NS(=O)(=O)c2ccc(C)cc2)cc1,-23%,-7%
O=c1c2ccccc2nc(/C=C\c2ccc(F)cc2)n1-c1ccccc1F,-27%,-8%
CC(C)CC(=O)Nc1nc2nc(-c3ccccc3)cc(=O)n2[nH]1,-8%,-9%
O=S(=O)(NCCS(=O)(=O)N1CCN(c2ccccc2)CC1)c1ccc(F)cc1,-2%,0%
CCCC(=O)Nc1nc(C)c(-c2csc(Nc3cc(OC)ccc3OC)n2)s1,?,-44%
Cc1ccc2cccc(SCC(=O)Nc3ccc(F)cc3)c2n1,-2%,i
COc1ccc(Cl)cc1NC(=O)C1CCN(C(=O)C2CC(=O)N(c3ccc(C)cc3)C2)CC1 (centres undefined),-28%,-22%
O=C1c2ccccc2C(=O)N1COc1ccc(S(=O)(=O)N2CCOCC2)cc1[N+](=O)[O-],4%,-11%
CC(=O)N1CCC(C(=O)OCc2ccc(Cl)cc2)(c2ccccc2)CC1,-17%,-15%
Cc1cc(Cl)ccc1NC(=S)NCc1ccc(F)cc1,-21%,-25%
COc1ccc(Cn2c(N)c(C(=O)NCc3ccco3)c3nc4ccccc4nc32)cc1OC,-30%,-27%
Cc1cc(C(=O)OCC(=O)N2CCc3ccccc32)c(C)o1,-12%,-13%[1.46 µM]
COc1ccc(-n2c(=O)cc(N3CCc4ccccc43)[nH]c2=O)cc1,0%,-12%
CCc1ccccc1N(C(=O)c1ccco1)C(C(=O)NC1CCCC1)c1cccnc1 (centres undefined),2%,4%
Cc1ccc(OCc2ccccc2Br)c([N+](=O)[O-])n1,0%,i

# Copied from above (6 entries):
Molecule,Vaccinia Venus,VACV mCherry inh
Cc1ccc2cccc(SCC(=O)Nc3ccc(F)cc3)c2n1,-2%,i
COc1ccc(Cl)cc1NC(=O)C1CCN(C(=O)C2CC(=O)N(c3ccc(C)cc3)C2)CC1 (centres undefined),-28%,-22%
O=C1c2ccccc2C(=O)N1COc1ccc(S(=O)(=O)N2CCOCC2)cc1[N+](=O)[O-],4%,-11%
CC(=O)N1CCC(C(=O)OCc2ccc(Cl)cc2)(c2ccccc2)CC1,-17%,-15%
Cc1cc(Cl)ccc1NC(=S)NCc1ccc(F)cc1,-21%,-25%
COc1ccc(Cn2c(N)c(C(=O)NCc3ccco3)c3nc4ccccc4nc32)cc1OC,-30%,-27%

# Carrying on:
Molecule,Vaccinia Venus,VACV mCherry inh
COc1ccccc1C1CN(CC(=O)NCC2OCCc3ccccc32)Cc2ccccc2O1 (centres undefined),-4%,-14%
CCN(CC(O)COCc1ccc(Cl)cc1)C1CCCCC1 (centres undefined),-9%,-4%
COc1cccc(NC(=O)CSc2nc3c(c(=O)n2C)SC(C)C3)c1 (centres undefined),-18%,-11%
CCOC(=O)N1CCN(Cc2nc3cc(NC(=O)c4cccs4)ccc3n2C)CC1,-18%,-26%
CCOC(=O)c1c(C)[nH]c(C(=O)COC(=O)CNC(=O)c2ccc(Cl)cc2)c1C,-6%,-8%
COc1ccc(C(=S)N2CCOCC2)cc1OC(=O)c1cc([N+](=O)[O-])c(C)c([N+](=O)[O-])c1,-9%,i
C[C@@H]1CN([C@H](C)CO)C(=O)CCCn2nncc2CO[C@H]1CN(C)S(=O)(=O)c1cccc(C#N)c1,5µM*,?
O=C(CSc1ccc(Cl)cc1)N1N=CCC1c1ccccc1 (centres undefined),-21%,-23%
Cc1cc(C)c(S(=O)(=O)NCc2ccc3c(c2)OCO3)c(C)c1,-2%,-11%
COc1ccccc1Sc1nc(-c2ccccc2)ncc1OC,-14%,i
CCCS(=O)(=O)NC(=O)C1(C)CCN(C(=O)c2ccnc(Cl)c2)C1 (centres undefined),3%,18%
COc1cccc(S(=O)(=O)N(C)C[C@@H]2OCc3cnnn3CCCC(=O)N([C@H](C)CO)C[C@H]2C)c1,-8%,-26%
